# Resorufin autofl = qHTS Assay for Spectroscopic Profiling in Resorufin Spectral Region; Compound fluorescence, resorufin region 547/598 nm, buffer; hits give high values; max dye-equivalent concentration, M; 0.04% of 59,000 active; AID 588, 2007; active = above 10 nM dye equivalent; inconclusive = 1 to 10 nM; inactive = 1 nM or less; a few of its hits are not listed in these tables; also: highest value over a series up to 38 µM
#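 Compounds in 100 mM Tris, pH 8.0, incubated 15 min at room temperature, then fluorescence read at 547 nm excitation/598 nm emission. Signal converted to dye-equivalent concentration via an on-plate six-point resorufin standard curve, per compound concentration.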
# AID923 = qHTS Assay for Allosteric/Competitive Inhibitors of Caspase-1: Spectroscopic Profiling in AFC Spectral Region; compound fluorescence, AFC spectral region (405/520 nm); almost no hit is shown here; AID 923, 2007; Potency, µM (top dose mostly 57.5 µM), for inactives: at the highest dose fluorescence increase, usual class: activators; 1.1% of 75,000 active; active = well fitted activation curve with a large enough effect; inconclusive = small, poorly fitted or top-dose-only effect;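 also: potency is read from the fitted curve at half-maximal effect; 0% is about no effect; scaled to a free AFC standard on each plate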
#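 Titrations up to 57 uM read every 20 sec for 3 min (405/520 nm) with 50 nM caspase 1 and 5 uM Ac-WEHD-AFC, pH 7.5 HEPES buffer. Fluorescence-vs-time intercept gave baseline, scaled against on-plate AFC standard.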
# A647 autofl = qHTS Assay for Spectroscopic Profiling in A647 Spectral Region; max dye-equivalent concentration, M; Compound fluorescence, A647 channel (570/671 nm), Tris buffer; 59,000 tested, under 10 active; AID 592, 2007; active means above 1 µM dye equivalent; inconclusive means 0.1 to 1 µM; inactive means 0.1 µM or less;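 also: values scaled relative to a standard on each plate; highest value over a series up to 38 µM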
#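 Compound fluorescence was measured in 100 mM Tris buffer, pH 8.0, after 15 min at room temperature, using 570 nm excitation and 671 nm emission filters. Signal was normalized to a per-plate Alexa 647 standard curve and expressed as dye-equivalent concentration at each compound concentration.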
# A488 autofl = qHTS Assay for Spectroscopic Profiling in A488 Spectral Region; compound autofluorescence, A488 spectral region, dye equivalency; hits give high values; max dye equivalency, M; 0.1% of 59,000 active; active = above 10 nM dye equivalent; inconclusive = 1 to 10 nM; inactive = 1 nM or less; about half of its hits are not listed in these tables;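 also: highest value over a series up to 38 µM; compound alone in buffer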
#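 Compounds pin-transferred into 100 mM Tris buffer, pH 8.0, incubated 15 min at room temperature, then imaged with 480 nm excitation/540 nm emission filters. Fluorescence converted to Alexa 488 dye-equivalent concentration via an on-plate six-point A488 standard curve.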
# TSHR ag = qHTS Assay for Agonists of the Thyroid Stimulating Hormone Receptor. Thyrotropin receptor (Homo sapiens), P16473. HEK293-CNG-TSHR cells (CNG channel as cAMP sensor), membrane potential dye, cAMP. Potency, µM (titrated, usually from 57.1 µM), for inactives: at the highest dose activation, usual class: activators. 0.48% of 73,000 active; active = well fitted activation curve of enough size with the parental cells flat; inconclusive = any curve in the parental cells; inactive = parental cells flat and receptor cells flat or falling; also: potency is read from the fitted curve at half-maximal effect; % of control where 0% means no effect; weak receptor curves with flat parental cells got no call and are not listed
# Target sequence (P16473 whole entry, looked up): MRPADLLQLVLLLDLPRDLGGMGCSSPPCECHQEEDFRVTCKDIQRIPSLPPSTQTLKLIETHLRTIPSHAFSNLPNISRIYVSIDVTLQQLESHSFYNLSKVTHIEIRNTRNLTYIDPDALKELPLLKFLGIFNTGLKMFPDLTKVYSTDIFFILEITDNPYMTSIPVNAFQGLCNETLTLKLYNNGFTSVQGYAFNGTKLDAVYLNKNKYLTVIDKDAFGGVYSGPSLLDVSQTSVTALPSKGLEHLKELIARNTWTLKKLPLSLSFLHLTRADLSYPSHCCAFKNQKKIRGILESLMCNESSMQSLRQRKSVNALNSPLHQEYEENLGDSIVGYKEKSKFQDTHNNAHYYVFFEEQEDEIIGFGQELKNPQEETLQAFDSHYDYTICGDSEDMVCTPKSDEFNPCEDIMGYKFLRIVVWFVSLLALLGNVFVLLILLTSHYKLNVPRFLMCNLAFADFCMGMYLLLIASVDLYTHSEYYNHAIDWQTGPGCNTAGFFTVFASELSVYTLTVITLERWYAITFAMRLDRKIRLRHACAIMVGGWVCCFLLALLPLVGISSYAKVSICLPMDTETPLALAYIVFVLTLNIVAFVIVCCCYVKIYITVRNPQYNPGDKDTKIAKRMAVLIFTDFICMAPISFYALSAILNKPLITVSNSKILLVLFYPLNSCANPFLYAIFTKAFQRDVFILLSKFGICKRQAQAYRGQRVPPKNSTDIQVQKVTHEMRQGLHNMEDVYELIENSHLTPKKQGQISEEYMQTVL
#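 HEK 293 cells stably expressing TSHR and a cAMP-gated CNG channel; parental CNG-only cells as counterscreen. Cells preloaded 60 min with membrane potential dye plus 100 uM RO 20-1724, then compound 30 min; fluorescence read at 590 nm.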
# * = called active by the depositor; i = inactive; ? = inconclusive; nt = no result given; & = joins results of further samples; [ ] = another dose, or the depositor's remark. Not all compounds are listed; rates above refer to the full screens.
# Screens in order: A488 autofl	AID923	TSHR ag	Resorufin autofl	A647 autofl
> CC1OC(Nc2cccc3ccccc23)C(O)C(O)C1O (stereo not drawn)
  nt	-2.5%	-4%	nt	nt
> COc1ccc(-n2nc3c(c2NC(=O)C2CC2)CS(=O)C3)cc1 (stereo not drawn)
  i	1.0%	-4%	i	9.9e-09
> O=C(Nc1ccccc1)N1CCCC2(CCN(C(=O)c3ccco3)CC2)C1
  i	2.7%	8%	i	1.6e-08
> Cc1ccc(Cn2c(=O)c3c(nc4n3CCCN4Cc3ccccc3)n(C)c2=O)cc1
  i	1.4%	-27%	i	2.7e-08
> O=C(NCc1cccnc1)c1ccc(=O)oc1
  i	nt	nt	i	1.6e-08
> O=C1NC(=O)C(c2cn(-c3ccccc3)nc2-c2ccc(F)cc2)N1 (stereo not drawn)
  i	nt	nt	i	3.7e-09
> O=C(Oc1ccccc1)N1CCC2(CC1)CCN(c1cccc(-c3ccccc3)c1)CC2
  i	3.2%	6%	i	1e-09
> CCCCN1CCc2c([nH]c3ccc(C)cc23)C1=O
  i	-0.4%	6%	i	3.2e-08
> O=C(Nc1nnc(SCc2ccc(Cl)cc2)s1)c1ccco1
  i	-0.2%	?	i	6.2e-09
> Cc1cc(C(=O)N2CCCC2C(=O)O)c(C)o1 (stereo not drawn)
  nt	-1.8%	-4%	nt	nt
> CN1C(=O)CC[C@@H]1c1cccnc1
  i	1.7%[25.7 µM]	-3%	i	1e-09&3.1e-09&3.1e-09
> CCOC(=O)c1[nH]c2ccccc2c1N=CN(CC)CC
  i	nt	nt	i	7.2e-08
> CN(CCOC(=O)c1cccc(Br)c1)C(C)(C)C
  i	nt	nt	i	6.6e-09
> CCN(CC(=O)Nc1ccc2c(c1)OCCO2)Cc1cc(=O)oc2cc(C)c(C)cc12
  i	0.0%	?	i	1e-09
> O=C(NCCN1CCOCC1)c1ccc(CS(=O)(=O)c2ccc(Br)cc2)o1
  nt	1.2%	4%	nt	nt
> Cc1ccc2cccc(S(=O)(=O)n3nc(C)cc3C)c2n1
  i	2.3%	10%	i	1e-09
> O=C(Nc1ccc(F)cc1F)c1ccc(COc2c(F)c(F)cc(F)c2F)o1
  i	2.2%	?	i	3.6e-09
> COc1ccc(C(=O)Nc2ccc(S(=O)(=O)N3CCCCC3C)cc2)c(OC)c1OC (stereo not drawn)
  nt	1.0%	19%	nt	nt
> CCOC(=O)C1=C(C)NC(C)=C(C(=O)OCC)C1C(=O)OCC(=O)N1CCc2ccccc21
  i	1.2%	-2%	i	2.7e-09
> Cn1c(CCN2CCOCC2)nc2cc(NC(=O)COc3ccc(Cl)cc3)ccc21
  i	-0.3%	12%	i	1e-09
> CCCc1cc(=O)[nH]c(/N=C(/NC(=O)C(C)N2C(=O)c3ccccc3C2=O)Nc2ccccc2)n1 (stereo not drawn)
  i	-2.7%	37%	i	7.6e-08
> CCCCCCC1C(C#N)=C(N)OC2=C1C(=O)CCC2 (stereo not drawn)
  nt	-4.0%	17%	nt	nt
> CC#CCN(CC#CC)S(=O)(=O)c1ccc(-n2cnnn2)c(OC)c1
  i	1.5%	?	i	2.3e-08
> CCc1c(C)nc(N)n2c(SCC(=O)N3CCN(c4ccccc4F)CC3)nnc12
  i	-1.6%	-1%	i	3.8e-08
> Cc1nc2ccc(S(=O)(=O)NCC(=O)N3CCCCC3)cc2s1
  i	-0.3%	2%[11.4 µM]	i	7.1e-09
> COc1ccc(S(=O)(=O)Cc2ccc(C(=O)NCCCN(C)c3ccccc3)o2)cc1
  i	0.1%	?	i	1e-09
> O=C(O)CCC(=O)Nc1ccc(C(=O)OC2CCCCC2)cc1
  nt	0.6%	-5%	nt	nt
> CCOCCCNS(=O)(=O)Cc1ccccc1
  i	2.0%	2%	i	1.3e-09
> CCOC(=O)COc1cc2c3c(c(=O)oc2cc1C)CCCC3
  i	-1.0%	?	i	2.2e-09
> CCCN(CCC)C[C@@H]1CCCCN1CCNC(=O)N1c2ccccc2C(=O)Nc2cccnc21
  nt	0.0%	5%	nt	nt
> C=CCOC(=O)Nc1c(C(=O)OC)[nH]c2ccccc12
  i	4.7%	7%	i	1e-09
> CCN(CC)c1ccc(C(=O)OCC(=O)N2CCN(c3ccccc3)CC2)cc1
  i	-1.0%	?	i	4.6e-09
> Cc1c(NS(=O)(=O)c2ccccc2)cc(Cl)c(O)c1C
  nt	-1.5%	16%	nt	nt
> COc1ccc(NC(=O)c2cccc(-n3cnnn3)c2)cc1
  i	-1.1%	-4%	i	9.3e-09
> Cc1ccc(N2CC(c3nc4ccccc4n3C)CC2=O)cc1C (stereo not drawn)
  nt	0.0%	?	nt	nt
> CN1CCN(Cc2c(O)ccc3c(=O)c(Oc4ccccc4Cl)c(C(F)(F)F)oc23)CC1
  nt	18%	-6%	nt	nt
> CN(C)c1cccc(C(=O)OCC(=O)NCC2CCCO2)c1 (stereo not drawn)
  i	0.2%	2%	i	3e-08
> O=C(CN(C(=O)CCC(=O)Nc1nccs1)c1ccc2c(c1)OCCO2)NCc1ccco1
  i	0.0%	22%	i	1.2e-08
> COc1ccc(S(=O)(=O)N2CCC(C(=O)NCc3ccccn3)CC2)cc1Cl
  i	-2.3%	-3%	i	1.5e-08
> CC[C@H](C)[C@H](N)C1=N[C@H](C(=O)N[C@@H](CC(C)C)C(=O)N[C@@H](CCC(=O)O)C(=O)N[C@@H](C(=O)N[C@H]2CCCCNC(=O)[C@@H](CC(N)=O)NC(=O)[C@@H](CC(=O)O)NC(=O)[C@@H](Cc3cnc[nH]3)NC(=O)[C@@H](Cc3ccccc3)NC(=O)[C@@H]([C@@H](C)CC)NC(=O)[C@@H](CCCN)NC2=O)[C@@H](C)CC)CS1
  i	-4.4%[25.7 µM]	-12%[25.6 µM]	i	3.3e-08
> COc1ccc(S(=O)(=O)Nc2nnc(C)s2)cc1
  nt	-0.9%	9%[11.4 µM]	nt	nt
> Cc1ccc(CCNC(=O)c2nnn(-c3cc(C)cc(C)c3)c2N)cc1
  i	0.4%	7%	i	1e-09
> Cn1c(=O)n(CCCOc2ccc(Cl)cc2)c2ccccc21
  i	-0.2%	?	i	1e-09
> CCCC(c1nnnn1Cc1ccccc1)N1CCC(C(N)=O)CC1 (stereo not drawn)
  i	2.0%	?	i	5.2e-09
> CCOC(=O)c1cc2ccccc2nc1C
  i	0.0%	4%	i	1.4e-08
> Cc1ccc(-c2cc(C(=O)NCc3ccco3)no2)cc1
  i	1.9%	4%	i	5.5e-09
> Cc1ccc2c(c1)cc(C)c1nnc(SCC(=O)NCc3ccco3)n12
  i	-0.5%	18%	i	2.2e-09
> COc1cccc2sc(Nc3nnc(-c4cccs4)o3)nc12
  i	4.7%	-13%	i	1e-09
> CC(C)=CCC/C(C)=C/CN(CC(C)O)CC(C)O (stereo not drawn)
  i	-3.1%	8%	i	3.3e-09
> Cc1cc(C)n(-c2nncn2/N=C/c2ccccc2F)n1
  i	-0.2%	4%	i	5.2e-09
> C=CCc1cccc(/C=N/c2nc3ccccc3n2CC)c1O
  nt	0.5%	9%	nt	nt
> CN(C)S(=O)(=O)N1CCN(C(=O)c2ccccc2Cl)CC1
  i	-0.5%	11%	i	2.5e-08
> CN(C)Cc1nc2c([nH]1)c(=O)n(C)c(=O)n2C
  nt	9.5%	0%	nt	nt
> Cc1nc2cnc(Oc3ccccc3)nc2n(Cc2cccs2)c1=O
  i	0.8%	?	i	1e-09
> COc1cc(C(c2nnnn2C(C)(C)C)N2CCN(c3nc4ccccc4s3)CC2)ccc1O (stereo not drawn)
  i	-1.9%	4%	i	5.4e-09
> CC(C)Sc1nc2c(cnn2-c2ccccc2)c(=O)[nH]1
  nt	-2.4%	6%	nt	nt
> O=C1CC2(CCCCC2)Oc2ccc(O)cc21
  i	-1.4%	9%	i	2.1e-08
> O=C(Nc1ccc2c(c1)oc1ccccc12)c1ccncc1
  nt	0.3%	4%	nt	nt
> O=C(c1cnccn1)N1CCC2(CCCN(Cc3ccncc3)C2)CC1
  i	3.3%	-3%	i	1e-09
> Cc1cc(-n2nc(C)cc2C)n2ncc(-c3ccccc3)c2n1
  i	1.3%	10%	i	1.7e-08

# Next part:
# Screens in order: A488 autofl	AID923	TSHR ag	Resorufin autofl	A647 autofl
> CN(C)c1ccc(C2C3C(=O)NC(=O)C3ON2c2ccc(Cl)cc2)cc1 (stereo not drawn)
  nt	2.5%	-20%	nt	nt
> COCCNC(=O)c1ccc(CS(=O)(=O)c2ccc(C)cc2)o1
  i	3.2%	-1%	i	6e-09
> COCCn1nnnc1C(c1cc(OC)ccc1OC)N1CCc2ccccc2C1 (stereo not drawn)
  i	-1.1%	?	i	5e-09
> CCn1c(SCC(=O)c2ccc(NS(=O)(=O)c3ccccc3)cc2)nnc1-c1cccs1
  i	-1.6%	?	i	1e-09
> Cn1c(=O)c2[nH]c(CSCc3ccccc3)nc2n(C)c1=O
  i	0.2%[11.5 µM]	1%[11.4 µM]	i	9.9e-09
> CC(=O)N1CCCc2cc(S(=O)(=O)N(C)CCC#N)ccc21
  i	-1.2%	-2%	i	5.2e-09
> CCOc1ccc(/C(O)=C2/C(=O)C(=O)N(Cc3cccnc3)C2c2ccc(N(C)C)cc2)c(C)c1 (stereo not drawn)
  i	-2.1%	1%	i	5.7e-09
> Cc1ccc2oc(=O)c3cnn(CC(=O)N4CCN(c5ccccn5)CC4)c3c2c1
  nt	0.4%	11%	nt	nt
> COc1ccc2nc(/N=C\N(C)C)sc2c1
  i	-0.2%	3%	i	1.1e-08
> CSCC[C@@H](C(=O)Nc1ccc2c(c1)OCCO2)N1Cc2ccccc2C1=O
  nt	2.3%	0%	nt	nt
> COc1cc(C2N=C(c3ccccc3)NO2)cc(Br)c1O (stereo not drawn)
  i	-1.1%	-1%	i	1e-09
> NC(=O)CSc1c[nH]c2ccccc12
  i	nt	nt	i	8.6e-08
> O=C(O)/C=C\c1cnc[nH]1
  i	-1.1%	?	i	6.8e-09
> CCC(=O)Nc1cc(C)c(NC(=O)C23CC4CC(CC(C4)C2)C3)cn1
  i	1.7%	10%	i	1.2e-09
> CCNc1nc(NCC)n2c(SCc3ccc(F)cc3)nnc2n1
  i	-2.6%	5%	i	9.1e-09
> COc1cccc(-c2cc(C(=O)Nc3cnn(Cc4ccc(F)cc4)c3)no2)c1
  i	-0.7%	-1%	i	1e-09
> CCC1CCCCN1Cc1nc2c(c(=O)n(C)c(=O)n2C)n1Cc1ccccc1 (stereo not drawn)
  nt	6.0%	11%	nt	nt
> CCOC(=O)c1c(C)c(C(=O)NCCCN2CCCC2=O)c(C)n1CC
  i	0.1%	nt	i	6.7e-09
> O=C(Oc1cccc(-n2cnnn2)c1)c1sc2ccccc2c1Cl
  i	0.1%	-5%	i	6.4e-09
> O=P1(Nn2cnnc2)C=C(c2ccccc2)OC(c2ccccc2)=C1
  i	-1.9%	nt	i	3.5e-09
> Clc1ccccc1Cn1nnc2c(NCC3CC3)ncnc21
  i	0.0%	-2%	i	1.7e-09

# Record cards, as listed above.
# O=P1(Nn2cnnc2)C=C(c2ccccc2)OC(c2ccccc2)=C1 is listed as A488 autofl: i; AID923: -1.9%; TSHR ag: nt; Resorufin autofl: i; A647 autofl: 3.5e-09
# COc1cccc(-c2cc(C(=O)Nc3cnn(Cc4ccc(F)cc4)c3)no2)c1 is listed as A488 autofl: i; AID923: -0.7%; TSHR ag: -1%; Resorufin autofl: i; A647 autofl: 1e-09

# Screens (PubChem)
